Screens (PubChem)
GIV-Gai inh: GIV-Galpha-i interaction inhibition. actives 0.42% (n = 210,000). Galpha-i3/FITC-GIV peptide fluorescence polarization, 90 min; stronger effect = lower value; scaled: aluminum fluoride 0%, vehicle 100%. percent of control (FP), % (test concentration not listed). AID 1224905;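 active = replicate mean at 85% of control or lower, very high polarization wells dropped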;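 note: wells of about 15 µL received 100 nL stock; the first replicate is given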
Target sequence (P08753 whole entry, looked up): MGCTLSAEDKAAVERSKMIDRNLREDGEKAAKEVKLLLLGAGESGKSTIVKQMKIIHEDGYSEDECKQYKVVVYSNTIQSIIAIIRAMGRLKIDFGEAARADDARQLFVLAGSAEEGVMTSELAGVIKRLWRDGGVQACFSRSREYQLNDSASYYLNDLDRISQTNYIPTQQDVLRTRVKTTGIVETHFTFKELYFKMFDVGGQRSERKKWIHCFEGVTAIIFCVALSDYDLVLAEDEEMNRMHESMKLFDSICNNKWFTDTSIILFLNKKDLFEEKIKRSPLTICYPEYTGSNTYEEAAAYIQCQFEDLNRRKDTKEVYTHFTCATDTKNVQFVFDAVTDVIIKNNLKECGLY
Numbers without * were called inactive.

The opening 4 entries as a preview:
GIV-Gai inh | Molecule
111 | O=C(NCCCN1CCCC1=O)c1ccc2c(=O)n(Cc3cccc(Br)c3)c(=S)[nH]c2c1
124 | COc1ccc(OC)c(NC(=O)c2cc3cccc(OC)c3oc2=Nc2ccc(C(=O)O)cc2)c1
111 | COc1cccc(N2CCN(c3ncnc4c3cnn4-c3ccccc3)CC2)c1
111 | CC1CCC2(CC1)NC(=S)c1c(sc3c1CCC(C)C3)N2 (centres undefined)

The listing, from the start:
GIV-Gai inh | Molecule
111 | O=C(NCCCN1CCCC1=O)c1ccc2c(=O)n(Cc3cccc(Br)c3)c(=S)[nH]c2c1
124 | COc1ccc(OC)c(NC(=O)c2cc3cccc(OC)c3oc2=Nc2ccc(C(=O)O)cc2)c1
111 | COc1cccc(N2CCN(c3ncnc4c3cnn4-c3ccccc3)CC2)c1
111 | CC1CCC2(CC1)NC(=S)c1c(sc3c1CCC(C)C3)N2 (centres undefined)
107 | COc1cccc(NC(=O)C2CCN(S(=O)(=O)c3ccc(-c4noc(C5CC5)n4)cc3)CC2)c1
100 | COc1cccc(CNC(=O)C2CCCN(c3ncnc4c3oc3ccccc34)C2)c1 (centres undefined)
97 | COc1ccc(Cl)cc1S(=O)(=O)NCC1(C)CCOCC1
103 | CCc1nnc2ccc(NCC3CCCO3)nn12 (centres undefined)
103 | Cc1ccc(-c2noc(C(=O)N3CCCC3)n2)cc1S(=O)(=O)N1CCN(c2ccccc2F)CC1
115 | COc1ccc(C2NC(=O)c3c(sc4c3CCCC4)N2)c(OC)c1 (centres undefined)
108 | COc1cccc(C(=O)Nc2nnc(SCC(=O)Nc3ccccc3C(F)(F)F)s2)c1OC
114 | Cc1cccc(N2CCN(C(=O)c3cccc(N4C(=O)C5CC=CC(C)C5C4=O)c3)CC2)c1C (centres undefined)
99 | O=C(Nc1ccc2c(c1)OCCO2)c1nc2ccccc2nc1N1CCOCC1
102 | CCOC(=O)C1=C(C)NC2=C(C(=O)C(C(=O)OCC)C(c3ccccc3OC)C2)C1c1ccc(F)cc1 (centres undefined)
97 | Cn1nccc1-c1csc(S(=O)(=O)NC2CCCCC2)c1
101 | Cc1ccccc1CNC(=O)C1CCCN(S(=O)(=O)Cc2ccc(F)cc2)C1 (centres undefined)
108 | COc1ccccc1C1C2=C(NCCN=C2c2ccccc2)C(=O)N1c1ccccc1 (centres undefined)
105 | O=C1CCCC2=C1C(c1ccccc1F)Nc1ccc3ncccc3c12 (centres undefined)
114 | CCOC(=O)N1CCN(c2ncnc3c2c(-c2ccccc2)cn3-c2ccc(OC)cc2)CC1
105 | COC(OC)C12c3ccccc3C(c3ccccc31)C1C(=O)N(c3ccc(I)cc3)C(=O)C12 (centres undefined)
115 | CCCOc1ccc(C2Nc3cccc4cccc(c34)N2)cc1
104 | Cc1ccc(S(=O)(=O)CC(=O)Nc2ccc3sc(C)nc3c2)cc1
103 | CSc1ccc(NC(=O)N2CCc3c(c(-c4nc(C5CC5)no4)nn3C)C2)cc1
98 | Cc1ccc(C2=CC(c3ccc(F)cc3)n3c(nc4ccccc43)N2)cc1 (centres undefined)
112 | CCOC(=O)c1cc(C2CC2)nc2c1c(=O)n(Cc1cc(=O)n3cc(Cl)ccc3n1)c(=O)n2C
104 | CCCCCCCCCCCCCCCCOc1ccc(C(=O)Oc2ccc(OC)cc2)cc1
102 | COC(=O)c1cnc(N2CCOCC2)c2ccccc12
108 | CCOC(=O)C1(C)/C(=N\Nc2ccc([N+](=O)[O-])cc2)C(=O)C(=O)N1c1ccccc1 (centres undefined)
117 | CCSc1nc2ccc(NC(=O)CSc3nnnn3-c3ccccc3)cc2s1
103 | COc1ccc(NC(=O)c2cc3n(n2)C(C(F)(F)F)CC(c2ccc(Cl)cc2)N3)cc1 (centres undefined)
108 | Cn1cnc2c1c(=O)n(Cc1cccc(F)c1)c(=O)n2C
108 | O=C(OCc1ccccc1)c1ccc(N2C(=O)C3C4c5ccccc5C(c5ccccc54)C3C2=O)cc1 (centres undefined)
108 | CON1C(=O)CN(C(C)=O)C1c1ccc(Cl)cc1Cl (centres undefined)
94 | Cc1cc(N2CCCC2)n2nc(CN3CCC4(CC3)OCCO4)nc2n1
100 | O=C(Nc1cccc(F)c1)C1CCN(c2ccc3cc(S(=O)(=O)N4CCCCC4)ccc3n2)CC1
113 | COc1cccc(C2CC(c3cccs3)=NN2C(=O)CSc2nnc(CNC(=O)c3cccc(F)c3)n2C)c1OC (centres undefined)
99 | FC(F)(F)C1(C(F)(F)F)N=C(c2cccc(Cl)c2)OC(N2CCCCC2)=N1
103 | COC(=O)c1cccc(NC(=O)NCc2ccc3c(c2)N(C(=O)c2ccc(OC)cc2)CC3)c1
112 | Cc1cc2c(cc1C)C(Nc1ccc(F)c(F)c1)=NC(C)(C)C2
104 | CCSCCOC(=O)C1=C(C)NC(=O)NC1c1cc(OC)c(OC)c(OC)c1 (centres undefined)
104 | CCSc1nnc(-c2nn(C)c3c2CN(S(=O)(=O)c2ccc(C)cc2C)CC3)n1C
112 | O=C(Nc1nc2c(ncn2C2OC(CO)C(O)C2O)c(=O)[nH]1)C(Cc1ccccc1)N1C(=O)c2ccccc2C1=O (centres undefined)
102 | CCOc1ccc(NC(=O)Nc2ccc(-c3nc4ccccc4s3)c(Cl)c2)cc1
99 | CC1(C)c2ccccc2N(c2ccccc2)C12C=Cc1c(ccc3cc([N+](=O)[O-])ccc13)O2 (centres undefined)
122 | Cc1oc(-c2cccc(Cl)c2)nc1Cn1nnc(-c2nc(-c3ccc(F)cc3)no2)c1C
96 | Cc1ccc(CNC(=O)C2CCCN(S(=O)(=O)Cc3ccccc3)C2)cc1 (centres undefined)
108 | COC(=O)C1CCN(C(=O)CSc2nnc(-c3cc4ccccc4o3)n2-c2ccccc2)CC1
105 | O=C(CCc1nc(CSc2nc3ccccc3o2)no1)Nc1nccs1
102 | Cc1nnc(NC(=O)CSc2nnc3[nH]c(=O)cc(-c4ccccc4)n23)s1
100 | CCCN(C)S(=O)(=O)c1cc(-c2nnc(CC)o2)co1

Going on with the list:
GIV-Gai inh | Molecule
119 | C=CCNC(=O)CN1c2ccccc2C(C)(C)C12C=Cc1c(ccc3ccccc13)O2 (centres undefined)
104 | COc1ccc2c(c1)C(C)CC(C)(C)N2C(=O)Nc1ccc(Cl)c(Cl)c1 (centres undefined)
100 | CC1C(O)CCN(C)C1c1ccccc1 (centres undefined)
99 | CC1CC(=O)Nc2cc(S(=O)(=O)CCC(=O)NC3CC3)ccc2S1 (centres undefined)
104 | CCOC(=O)C1=C(CCl)OC(N)=C(C#N)C1c1cccc(Cl)c1Cl (centres undefined)
97 | CC(C)Oc1ccc(-c2noc(-c3nn(-c4ccc(Cl)cc4)ccc3=O)n2)cc1
111 | CCOc1ccc(N2C(=O)/C(=C\c3cc4c(cc3Br)OCO4)S(=O)(=O)C2c2cccc([N+](=O)[O-])c2)cc1 (centres undefined)
125 | COc1cc(C=C2C(=O)NC(=S)NC2=O)ccc1OCc1ccc(Cl)cc1Cl
111 | CCOc1ccc(CC(=O)NCCc2c(C)[nH]c3c(C)ccc(F)c23)cc1OCC
101 | COc1cccc(-c2ccc(=O)n(CCc3nc(-c4ccc(Br)cc4)no3)n2)c1
108 | CC(=O)NC1=NC(=O)/C(=C/c2ccc(-c3ccc(Cl)cc3Cl)o2)S1
101 | CCOC(=O)c1cnc2c(C)cc(C)cc2c1Nc1ccc(CC)cc1
106 | Cc1ccsc1C1CC(=O)NC(SCC(=O)Nc2ccc(Br)cc2)=C1C#N (centres undefined)
106 | CC(=O)c1cc(C#N)c(SCc2ccc(Cl)c(Cl)c2)nc1C
107 | COc1ccc(C2Nc3ccc4ccccc4c3C3=C2C(=O)CC(c2ccccc2)C3)cc1O (centres undefined)
102 | Brc1ccc(-c2ncc(-c3ccccc3)nn2)cc1
98 | O=C(NCc1ccc2c(c1)OCO2)c1nnc(-c2ccc(S(=O)(=O)N3CCCC3)cc2)o1
106 | CC(C)(C)C1CC=C2C(C#N)=C(N)C(C#N)(C#N)C(c3ccccc3Cl)C2C1 (centres undefined)
110 | O=C1OC(c2ccc([N+](=O)[O-])cc2Cl)=N/C1=C\c1cc(Br)cs1
100 | CC(C)c1csc(C2CCCN(C(=O)C(C)(C)C)C2)n1 (centres undefined)
107 | CCCOc1ccc(NC(=O)C2CC(=O)N(C)C(=Nc3ccc(C)c(C)c3)S2)cc1 (centres undefined)
113 | COc1ccc(-c2c3c4n(c(-c5ccc(Br)cc5)nn4c2C(=O)Nc2ccc(Cl)cc2)CCCC3)cc1
107 | Cc1ccc(C)c(N2CCN(C(=O)c3cc(S(=O)(=O)N4CCCC4)ccc3Cl)CC2)c1
110 | CN1CCN(c2cc(C(=O)Nc3ccc4c(c3)CCC4)c3ccccc3n2)CC1
112 | CCOc1ccc(C2=C(Cl)C=C(c3ccccc3C)c3ccccc3O2)cc1
103 | CCC1CCCCN1S(=O)(=O)c1cc(-c2nc(-c3ccc(Cl)cc3)no2)cs1 (centres undefined)
100 | CNC(=O)c1c(NC(=O)c2ccc(S(=O)(=O)N3CCCC3)cc2)sc2c1CCC2
92 | COC(=O)C1=CN(c2ccc3c(c2)OCO3)c2cc(Br)ccc2S1(=O)=O
101 | Cc1ccc(/C(O)=C2\C(=O)C(=O)N(c3ccccn3)C2c2ccc(F)cc2)cc1 (centres undefined)
101 | COc1ccc2[nH]cc(CCNC(=O)c3cnn4c(-c5ccc6c(c5)OCO6)ccnc34)c2c1
108 | CCOc1ccc(CNS(=O)(=O)c2cc(-c3cnn4c(C)cc(C)nc34)ccc2C)cc1OCC
101 | Cc1n[nH]c(=O)c2cc(S(=O)(=O)N3CCC(Cc4ccccc4)CC3)cn12
106 | CN(C)S(=O)(=O)c1ccc(C(=O)NCc2nnc(SCC(=O)Nc3nccs3)n2-c2cccc(Cl)c2)cc1
116 | COc1cc(C(=O)N2c3ccc(C)cc3-c3c(ssc3=S)C2(C)C)cc(OC)c1OC
104 | Cc1nc(-c2cc(S(=O)(=O)Nc3ccc(F)cc3Cl)c(C)s2)cs1
98 | CCCOc1ccc(C2CC(=O)Nc3c2cnn3-c2ccc3nnc(C)n3n2)cc1OCC (centres undefined)
106 | COc1cc(-n2c(C)nc3cc(C(=O)NCc4ccc(F)cc4)ccc32)cc(OC)c1OC
103 | CCOc1ccc2nc(NC(=O)c3ccc(S(=O)(=O)N4CCc5ccccc5C4)cc3)sc2c1
111 | CC(=O)Nc1ccc2c(c1)OCCOCCOc1cc(NC(C)=O)ccc1OCCOCCO2
101 | O=C(NCCSCc1ccccc1)c1ccc(N2CC3CC(C2)c2cccc(=O)n2C3)c(NC(=O)c2cccs2)c1 (centres undefined)
104 | O=C(NCCc1c[nH]c2ccccc12)c1cc2nc(-c3ccc4c(c3)OCO4)cc(C(F)(F)F)n2n1
103 | CN(CC1COCCO1)c1ccc(NC(=O)c2ccc(F)cc2)cc1C(=O)O (centres undefined)
106 | CCCCn1c(CNC(=O)c2ccco2)nnc1SCC(=O)Nc1sc(C(=O)OCC)c(C)c1C(=O)OCC
100 | O=C1CCCc2c1cc(C(=O)NCc1ccc3c(c1)OCO3)c(=O)n2-c1ccc(F)cc1
106 | CCOC(=O)C1=NNC2C(=O)N(c3cc(C)ccc3C)C(=O)C12 (centres undefined)
107 | O=C(NCCCN1CCCC1=O)c1ccc2c(c1)[nH]c(=S)n1c3ccccc3nc21
110 | CC(C)c1cc(C2CCCN2C(=O)c2cc(-c3ccc4c(c3)OCO4)on2)no1 (centres undefined)
104 | O=C(Nc1cccc(OCc2cc(=O)n3ccccc3n2)c1)c1ccccc1Cl
103 | CC(C)(C)C(=O)CN1C(=O)C2(OCCO2)c2cc([N+](=O)[O-])ccc21
105 | N#CC1=CN(c2ccc(Cl)cc2F)c2cc(F)ccc2S1(=O)=O

Sorted by value in GIV-Gai inh (rising): four from the list above.
GIV-Gai inh | Molecule
100 | O=C1CCCc2c1cc(C(=O)NCc1ccc3c(c1)OCO3)c(=O)n2-c1ccc(F)cc1
103 | CN(CC1COCCO1)c1ccc(NC(=O)c2ccc(F)cc2)cc1C(=O)O (centres undefined)
106 | CCOC(=O)C1=NNC2C(=O)N(c3cc(C)ccc3C)C(=O)C12 (centres undefined)
110 | CC(C)c1cc(C2CCCN2C(=O)c2cc(-c3ccc4c(c3)OCO4)on2)no1 (centres undefined)

(more compounds)
GIV-Gai inh | Molecule
106 | O=C(CCc1nc(CSc2nc3ccccc3s2)no1)Nc1ccc(F)c(Cl)c1
102 | Cc1[nH]c(-c2nnc(C3CCC3)o2)c(C)c1S(=O)(=O)NCC(C)C
111 | CCC(C)(NC)c1nnnn1-c1ccc(C)cc1 (centres undefined)
105 | COc1ccc(CCN2C(=O)C3C4CC(=O)C(c5ccccc54)C3C2=O)cc1OC (centres undefined)
94 | Cc1cc(S(=O)(=O)N2CCC(c3noc(-c4ccccc4)n3)CC2)ccc1F
105 | CCOC(=O)C1C(c2ccccc2)C(C(=O)OCC)S(=O)(=O)CS1(=O)=O (centres undefined)
101 | CN(C1CCCCC1)S(=O)(=O)c1cc(C(=O)Nc2ccc(Br)cc2)ccc1F
115 | N=C1S/C(=C\c2cn[nH]c2-c2ccc(F)cc2)C(=O)N1c1nonc1N
105 | COc1ccc(-c2ncc3c(=O)n(CC(=O)Nc4ccc(F)cc4F)c(=O)n(C)c3n2)cc1
103 | Cc1ccccc1N1CC(O)(c2ccc(Cl)cc2)[N+]2=C1SCCC2 (centres undefined)
102 | CC1=NN(c2ccc(C)c(Cl)c2)C(=O)/C1=C\c1cccn1-c1ccc(S(N)(=O)=O)cc1

Looked up by structure from above:
GIV-Gai inh | Molecule
103 | Cc1ccccc1N1CC(O)(c2ccc(Cl)cc2)[N+]2=C1SCCC2 (centres undefined)
105 | COc1ccc(-c2ncc3c(=O)n(CC(=O)Nc4ccc(F)cc4F)c(=O)n(C)c3n2)cc1
101 | CN(C1CCCCC1)S(=O)(=O)c1cc(C(=O)Nc2ccc(Br)cc2)ccc1F
105 | CCOC(=O)C1C(c2ccccc2)C(C(=O)OCC)S(=O)(=O)CS1(=O)=O (centres undefined)

Only part of the results is shown; count on the stated rates, not on these rows.
